# Screening results (PubChem BioAssay)
# CtBP-E1A inh: qHTS Assay for Inhibitors of the CtBP/E1A Interaction; CtBP / adenovirus E1A interaction (AlphaScreen); activity change, % (no concentration beside the values); 0.49% of 340,000 active; AlphaScreen GST-E1A/His-CtBP binding, 1536-well; stronger effect = lower value; control for the full effect not named in the record; in the data active means activity change below about -65%; inconclusive means about -30% to -65%; inactive means above about -30%; further: on the % scale 0 is the no-effect control and ±100 the full control effect; compound concentration not given in the record
#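 GST-E1A and His-tagged CtBP (125 nM each as 5X stock) were preincubated with pin-transferred compound for 2 h at 37 °C in the dark, then glutathione donor and nickel acceptor beads were added for 1 h before AlphaScreen reading.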
# gsp antagonist: qHTS for Antagonists of gsp, the Etiologic Mutation Responsible for Fibrous Dysplasia/McCune-Albright Syndrome: qHTS; gsp-mutant cells, cAMP HTRF, 30 min; control for the full effect not named in the record; 0.4% of 340,000 active; Potency, µM (series often up to 76.9 µM), for the others: at the top dose activity change, negative = inhibition, usual class: inhibitors; AID 624288, 2012; active = falling curve of any shape with a large fitted effect; inconclusive = falling curve, mostly with a smaller effect; inactive = flat or rising curve; cell line not stated here;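 further: intracellular cAMP measured with PDE inhibitor Ro 20-1724 present during compound exposure; potency means the concentration at half of the fitted maximal effect; on the % scale 0 is the no-effect control and ±100 the full control effect; nearly all actives have a fitted effect of over 65% in size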
#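 HTRF cAMP measurement after 30 min RT detection following 30 min, 37C compound treatment alongside […] (added as 300 uM solution) in G418-selected cells seeded at 2000/well and grown 16–24 h.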
# D2 PAM: Beta-Arrestin HTS for Positive Allosteric Modulators of the Human D2 Dopamine Receptor: Potentiators | D(2) dopamine receptor (Homo sapiens), P14416 | DiscoveRx D2 beta-arrestin cells, luminescence, 90 min; 100% = 57 uM dopamine signal | potentiation, % (concentration not given with the values) | 0.23% of 360,000 active; active = potentiation of 50% or more; inconclusive = 30% to 50%; inactive = 30% or less;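 further: compound concentration not given in the record; tested on top of an EC20 dose of dopamine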
# Target sequence (P14416 whole entry, looked up): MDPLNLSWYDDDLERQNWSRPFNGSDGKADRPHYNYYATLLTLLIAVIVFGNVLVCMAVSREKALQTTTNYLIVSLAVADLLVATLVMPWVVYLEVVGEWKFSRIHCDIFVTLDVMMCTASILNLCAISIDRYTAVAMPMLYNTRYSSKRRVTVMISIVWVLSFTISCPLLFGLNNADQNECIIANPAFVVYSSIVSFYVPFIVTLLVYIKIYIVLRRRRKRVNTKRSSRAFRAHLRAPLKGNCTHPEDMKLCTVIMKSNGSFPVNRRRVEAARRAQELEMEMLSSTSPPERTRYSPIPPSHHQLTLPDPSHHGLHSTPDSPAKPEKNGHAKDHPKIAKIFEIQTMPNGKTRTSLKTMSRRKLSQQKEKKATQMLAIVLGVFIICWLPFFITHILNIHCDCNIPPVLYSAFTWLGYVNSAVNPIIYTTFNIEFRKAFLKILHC
#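 D2 cells co-treated with compound plus 50 nM dopamine (EC20) for 90 min at 37 deg C to detect potentiation. Beta-arrestin recruitment was read as enzyme-fragment luminescence after 1 h at ambient temperature. Full response was set by 57 uM dopamine.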
# Six1-Eya2 inh: qHTS Assay for Inhibitors of the Six1/Eya2 Interaction; Homeobox protein SIX1 (Homo sapiens) + Protein phosphatase EYA2 (Homo sapiens), …; AlphaScreen GST-Six1/His-Eya2 binding, biochemical; stronger effect = lower value; control for the full effect not named in the record; activity change, % (no concentration beside the values); 0.56% of 360,000 active; in the data active = activity change below about -65%; inconclusive = about -30% to -65%; inactive = above about -30%; further: on the % scale 0 is the no-effect control and ±100 the full control effect; compound concentration not given in the record
#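 AlphaScreen with GST-Six1 and His-Eya2 (5X mix: 250 nM and 500 nM), glutathione donor and nickel acceptor beads; buffer 50 mM Tris pH 8.0, 300 mM NaCl, 1 mM TCEP; 1 h at 37 C in the dark.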
# gsp agonist: qHTS for Agonist of gsp, the Etiologic Mutation Responsible for Fibrous Dysplasia/McCune-Albright Syndrome: qHTS. gsp mutant cells, cAMP HTRF, 30 min; control for the full effect not named in the record. Potency, µM (highest dose often 76.9 µM), for inactives: at the top dose activation (cAMP increase), usual class: activators. 0.13% of 340,000 active. AID 624287, 2012; active = well fitted activation curve with a large enough effect; inconclusive = small, poorly fitted or top-dose-only effect, or another doubt; inactive = no such curve, though single readings can be large or run the other way; cell line not stated here;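 further: phosphodiesterase inhibitor Ro 20-1724 added with compounds to block cAMP breakdown; potency means the concentration at half of the fitted maximal effect; nearly all actives have a fitted effect of over 60% in size; about a fifth of the inactives were tested at one dose only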
#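 Cells stably selected in G418 were plated at 2000/well, grown 16-24 hr, then given compounds in DMSO with the PDE inhibitor […] (300 uM solution added) for 30 min at 37C; cAMP was read by HTRF.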
# D2 agonist: Beta-Arrestin HTS for Positive Allosteric Modulators of the Human D2 Dopamine Receptor: Agonists; 0.084% of 360,000 active; DiscoveRx PathHunter D2 beta-arrestin, luminescence, 90 min; 100% = 57 uM dopamine signal; activation, % (test concentration not listed); AID 624465, 2012; in the data active = activation above about 40%; inconclusive = about 15% to 40%; inactive = below about 15%; further: compound concentration not given in the record; the text of the record calls up to 30% inactive
#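 Agonist mode: compounds alone added to overnight-plated D2 PathHunter cells for 90 min at 37 C, with 57 uM final dopamine (EC100) defining full response. Beta-arrestin recruitment detected by chemiluminescent reagent, read after 1 h at ambient temperature.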
# Active calls of the source: *; ? = inconclusive; . = not tested or not shown; [ ] = remark or other dose. The order is random, and some 1.4% of all compounds hit somewhere here.
SMILES	CtBP-E1A inh	D2 PAM	gsp antagonist	gsp agonist	Six1-Eya2 inh	D2 agonist
CN(C)Cc1c(O)ccc2c(-c3ccccc3)cc(=O)oc12	5.1	-22.2	14.5%	25.4%	1.1	0.5
COc1ccc(NS(=O)(=O)c2ccc(Cl)s2)cn1	1.3	3.5	-9.6%	-8.1%[15.4 µM]	2.1	-0.2
O=Cc1ccc(OCc2nnsc2Cl)cc1	0.0	-1.5	-22.1%	-12.7%[15.4 µM]	1.8	2.6
C/C(=N\NC(=O)C1(C)CC1(Br)Br)c1ccc(C)cc1C (stereo not drawn)	0.2	-2.7	6.4%	19.5%	-2.0	-3.1
COc1ccc(N2CCN(CCCNC(=O)C(=O)c3c(C)n(C)c4ccccc34)CC2)cc1	.	-1.1	2.1%	-29.6%	-2.1	2.0
O=C(c1ccc(C(F)(F)F)cc1)C1CCCN(C(=O)CCc2ccncc2)C1 (stereo not drawn)	8.2	-8.5	-25.8%	-4.3%	-0.4	4.3
Cc1ccc(C(=O)OCC(=O)Nc2ccc3[nH]c(=O)[nH]c3c2)o1	0.0	-17.4	7.5%	14.3%	24.8	-4.5
CC(=O)Nc1ccc(N2C(=O)c3cccc4c(O)ccc(c34)C2=O)cc1	.	17.9	-9.5%	42.6%	-25.8	12.4
O=C(NC(=S)NCC1CCCO1)c1ccccc1[N+](=O)[O-] (stereo not drawn)	-5.6	-2.4	0.7%	16.3%[15.4 µM]	-1.3	-0.1
CC1(C)Cc2c(cnn2-c2ccc(F)cc2)C(NC(=O)CCn2cncn2)C1 (stereo not drawn)	8.7	19.2	6.9%	-55.0%[inhibitor]	5.8	0.5
CC(=O)Nc1ccc(NC(=O)CSc2nc3ccccc3c(=O)n2CCCN2CCOCC2)cc1	0.0	-32.0	-23.4%	-1.9%[15.4 µM]	0.0	7.5
Cc1ccc(OCCNC(=O)Cc2ccc(S(=O)(=O)N3CCOCC3)s2)cc1	1.1	-16.9	-9.6%	1.0%	2.7	2.6
CC(=O)c1cccc(NC(=O)COC(=O)COc2ccccc2C)c1	.	-6.2	5.6%	-73.3%[inhibitor]	-0.3	-5.5
COCCN1Cc2cccc(C(=O)N3CCN(c4ccccc4)CC3)c2C1=O	5.9	-12.9	7.3%	4.9%	2.1	-0.1
CCOc1ccc(C(C)NC(=O)c2cccnc2OCC)cc1OCC (stereo not drawn)	6.9	0.5	14.8%	-6.0%	-0.4	1.6
COc1cc(/C=C/c2ccc3cccc(O)c3n2)cc(Br)c1OC	-6.6	-8.0	11.1%	1.5%	-10.0	0.8

# Part of the list above in order of SMILES length, ascending:
SMILES	CtBP-E1A inh	D2 PAM	gsp antagonist	gsp agonist	Six1-Eya2 inh	D2 agonist
O=Cc1ccc(OCc2nnsc2Cl)cc1	0.0	-1.5	-22.1%	-12.7%[15.4 µM]	1.8	2.6
CCOc1ccc(C(C)NC(=O)c2cccnc2OCC)cc1OCC (stereo not drawn)	6.9	0.5	14.8%	-6.0%	-0.4	1.6
CN(C)Cc1c(O)ccc2c(-c3ccccc3)cc(=O)oc12	5.1	-22.2	14.5%	25.4%	1.1	0.5
C/C(=N\NC(=O)C1(C)CC1(Br)Br)c1ccc(C)cc1C (stereo not drawn)	0.2	-2.7	6.4%	19.5%	-2.0	-3.1
COCCN1Cc2cccc(C(=O)N3CCN(c4ccccc4)CC3)c2C1=O	5.9	-12.9	7.3%	4.9%	2.1	-0.1
Cc1ccc(C(=O)OCC(=O)Nc2ccc3[nH]c(=O)[nH]c3c2)o1	0.0	-17.4	7.5%	14.3%	24.8	-4.5
Cc1ccc(OCCNC(=O)Cc2ccc(S(=O)(=O)N3CCOCC3)s2)cc1	1.1	-16.9	-9.6%	1.0%	2.7	2.6
O=C(c1ccc(C(F)(F)F)cc1)C1CCCN(C(=O)CCc2ccncc2)C1 (stereo not drawn)	8.2	-8.5	-25.8%	-4.3%	-0.4	4.3
CC(=O)Nc1ccc(NC(=O)CSc2nc3ccccc3c(=O)n2CCCN2CCOCC2)cc1	0.0	-32.0	-23.4%	-1.9%[15.4 µM]	0.0	7.5
COc1ccc(N2CCN(CCCNC(=O)C(=O)c3c(C)n(C)c4ccccc34)CC2)cc1	.	-1.1	2.1%	-29.6%	-2.1	2.0

# Further compounds:
SMILES	CtBP-E1A inh	D2 PAM	gsp antagonist	gsp agonist	Six1-Eya2 inh	D2 agonist
COC(=O)c1cc(C)sc1NC(=O)C1C2C=CC(CC2)C1C(=O)O (stereo not drawn)	-2.6	-5.0	9.3%	?	5.2	-1.9
COC(=O)CCC1(C(N)=O)CCC(=O)c2ccccc21 (stereo not drawn)	3.9	-2.8	6.6%	6.9%	-0.7	1.8
O=C(COc1ccccc1)N=C1SC2CS(=O)(=O)CC2N1c1cccc(F)c1 (stereo not drawn)	5.0	-3.1	-0.1%	?	1.7	3.1
Cc1ccccc1-n1nc2c(c1NC(=O)C(C)(C)C)CS(=O)(=O)C2	-2.2	-7.1	9.6%	-30.8%[inhibitor]	2.1	0.3
COC(=O)N1C2CCCCC2=NN(c2ccccc2)N1C(=O)OC (stereo not drawn)	-0.6	-9.0	.	.	6.6	-7.4
CC(C)(C)c1ccc(OCC(=O)NCc2ccco2)cc1	-13.2	10.9	-12.6%	5.1%	-14.5	-0.7
N=C1CCCN1CC(=O)c1ccc(Cl)cc1	-0.2	-14.4	9.4%	?	8.2	1.0
COC(=O)CC1SC(=O)NC1=Nc1ccccc1 (stereo not drawn)	-1.5	-26.2	-5.7%	-32.7%	5.8	-3.8
O=C(NCCc1ccccc1)C(=O)NCCC1CCCCN1S(=O)(=O)c1ccccc1 (stereo not drawn)	-0.7	-20.9	-20.7%	22.5%[15.4 µM]	-16.3	6.7
CCN(Cc1ccccc1)C(=O)c1cccc(OC2CCN(C(=O)C3CC3)CC2)c1	24.4	0.4	-26.4%	20.6%	12.2	1.6
C=CCNCCOCCOc1ccc(C)cc1[N+](=O)[O-]	0.4	-18.4	7.2%	-5.5%	4.6	-2.3
Cc1cccc(NC(=O)CCNS(=O)(=O)c2cc(Br)cnc2N)c1C	-20.6	-6.9	8.5%	-15.4%	8.1	4.9
CCC1Oc2ccc(Cl)cc2N(CC(=O)O)C1=O (stereo not drawn)	6.3	1.4	-2.6%	-39.5%	6.1	-2.5
Cc1c(C2CC(=O)N(c3ccccc3)C2=O)[nH]n(-c2ccccc2)c1=O (stereo not drawn)	-15.0	-11.0	-3.4%	0.0%	-10.6	-3.8
CN(Cc1ccon1)C(=O)C1CCN(C2CCN(CCCc3ccccc3)CC2)CC1	3.5	-13.4	5.5%	21.7%	-2.0	-0.2
CCCNS(=O)(=O)c1ccc(CCC(=O)N2CCN(c3ccc(OC)cc3)CC2)cc1	-0.9	8.2	-19.5%	37.3%	-0.2	0.7
Cn1c(SCC(=O)Nc2ccc(F)cc2)nc2c(c1=O)SCC2	-6.2	-1.9	-11.9%	-2.3%[15.4 µM]	-2.8	2.8
Cc1ccc(C)c(NC(=O)CSc2nnc(-c3ccncc3)n2N)c1	1.4	-10.1	9.1%	7.7%	-3.3	-0.9
S=C(Nc1cccnc1)N1CCN(c2ccccc2Cl)CC1	2.4	-9.6	4.4%	13.5%[15.4 µM]	-1.3	-3.6
Cc1cc(C)cc(N(CC(=O)N2CCn3c2nc2ccccc23)S(=O)(=O)c2c(C)noc2C)c1	4.4	-4.5	4.3%	11.9%	-11.4	-2.0
O=C(NNc1c(Cl)cncc1Cl)c1cccs1	9.5	-2.5	6.1%	-12.0%	6.6	-3.7
Cc1ccc(CC(=O)NCCc2ccc(S(N)(=O)=O)cc2)cc1	.	-3.5	10.0%	10.1%	12.0	-0.1
COC(=O)[C@]1(Cc2ccccc2)N[C@H](c2ccc(SC3CCCCC3)c(OC)c2)[C@@H]2C(=O)N(C)C(=O)[C@@H]21	-1.3	-14.7	-19.4%	3.1%	-15.1	-2.5
Cc1ccc(NC(=O)CSC2=C(C#N)C(c3ccco3)CC(=O)N2)cc1 (stereo not drawn)	-1.1	-15.8	-0.3%	29.3%	-9.2	-0.2
CN(C)S(=O)(=O)n1cc(/C=C(\NC(=O)c2ccccc2Cl)C(=O)N2CCOCC2)c2ccccc21	2.5	8.4	12.5%	-21.9%	8.3	-0.4
CC(C)c1ccccc1NC(=O)CNC(C)c1ccc(F)cc1 (stereo not drawn)	5.4	-3.2	-3.6%	-11.7%	4.7	0.5
Nc1nc(SCc2ccc([N+](=O)[O-])cc2)nc2nc3c(cc12)CCCC3	0.0	-19.2	6.1%	?	-1.8	-4.8
COCCOC(=O)C1=C(N)OC2=C(C(=O)CC(C)(C)C2)C1c1cccnc1 (stereo not drawn)	7.1	-4.0	-7.9%	1.9%	5.5	-2.7
CS(=O)(=O)c1ccc2nc(NC(=O)c3ccccc3Cl)sc2c1	-6.2	1.3	7.7%	-13.9%	?	-6.2
CC(C)n1c(SCc2ccc(Cl)cc2)nc2c1c(=O)[nH]c(=O)n2C	0.0	-7.7	12.0%	?	0.0	-0.8
CSc1ccccc1NC(=O)CSc1nncs1	.	-12.8	-1.3%	-29.1%	-0.3	0.4
Cc1ccc(C=Nc2ccccc2C(N)=O)cc1	-0.1	-9.9	8.7%	-85.2%[inhibitor]	1.2	-4.4
O=C(CCC(=O)c1cccs1)NCC(c1ccc(F)cc1)N1CCOCC1 (stereo not drawn)	-27.3	-4.5	-5.1%	-6.4%	0.2	6.4
O=C(CNc1cccc(C(F)(F)F)c1)N/N=C/c1ccccc1C(=O)O	13.6	-2.7	9.9%	-0.5%	-1.7	-1.5
CC[C@@]1(C(=O)OC)N[C@H](CN(C)S(=O)(=O)c2ccc(OC)cc2)[C@@H]2C(=O)N(C)C(=O)[C@@H]21	7.1	-7.1	4.3%	.	2.7	0.2
C/C(=N\NC(=O)C(=O)Nc1cc(Cl)ccc1Cl)c1ccncc1	-14.0	0.4	4.8%	24.7%	10.6	-5.3
Cc1csc(SCC(=O)Nc2cccc(S(=O)(=O)N3CCCC3)c2)n1	-8.7	-5.8	-9.4%	3.0%	-7.2	-1.4
